LANA-H2A inh: blocks KSHV LANA binding to histone H2A/H2B. inhibition, % (test concentration not listed). AID 2629. Q9QR71. 320,000 tested, 0.6% active. cell-free LANA-H2A/H2B peptide, fluorescence polarization; in the data active = inhibition mostly above about 10%, no sharp cut-off; inactive = mostly below about 6.7%;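 also: stock transfer was 7.5 nL into about 10 µL; 0% = median of vehicle wells and 100% = median of positive control wells; one replicate is shown; the record names a cut of 25% in any replicate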
Ecoli growth: E. coli growth inhibition. AID 1053175. Escherichia coli growth, OD600, 23 h; active compounds read low. OD600 absorbance (concentration not given with the values). 330,000 tested, 0.21% active;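 active = OD600 absorbance below the run mean of sample wells minus 3.6 SD, in any replicate, cut at about 0.56 in these data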;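 also: stock transfer was 300 nL into about 60 µL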
Bfl-1 A1 inh: inhibitors of the anti-apoptotic protein A1, read as caspase activation. MEF A1-2A-BIM cells, Caspase-Glo 3/7 luminescence, 3 h; percent of clofoctol response, vehicle zero. caspase activation, % (concentration not given with the values). 330,000 tested, 0.066% active. AID 2462;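 active = over half of replicate activation scores above 10%, or exactly half above 10 with the replicate mean above 10; inconclusive = replicate mean below 10 yet half the replicates above 10; inactive = over half of replicates below 10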;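 also: wells of about 30 µL received 50 nL stock; many hits fall short of the cut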
HNF4A DNA FP: change in binding of human HNF4 alpha to DNA | P41235 | HNF4a-FITC DNA binding, fluorescence polarization, 1 h | activity change, % at 10 µM | 360,000 tested, 0.3% active | AID 1224865; in the data active = activity change above about 30%, passing the limit was not always enough;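 also: controls were the assay level and a saturating level of protein; the project sought stronger binding though the title names inhibitors; some compounds called inactive have numbers as strong as hits; positive values seem to mean higher polarization but the record does not say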
B2AR ag: agonists of human beta-2 adrenergic receptor inducing internalization | P07550 | Am2.2-beta2AR cells, FAP receptor internalization, flow cytometry; reference of the scale not given here | response, % (test concentration not listed) | 340,000 tested, 0.43% active;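 active = response above a set limit, near 3 SD of response in nonfluorescent compounds, cut at about 42% in these data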;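 also: stock transfer was 100 nL into about 11 µL; a reference agonist was the positive control; negative values mostly stem from fluorescent compounds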
Target sequence (P07550 whole entry, looked up): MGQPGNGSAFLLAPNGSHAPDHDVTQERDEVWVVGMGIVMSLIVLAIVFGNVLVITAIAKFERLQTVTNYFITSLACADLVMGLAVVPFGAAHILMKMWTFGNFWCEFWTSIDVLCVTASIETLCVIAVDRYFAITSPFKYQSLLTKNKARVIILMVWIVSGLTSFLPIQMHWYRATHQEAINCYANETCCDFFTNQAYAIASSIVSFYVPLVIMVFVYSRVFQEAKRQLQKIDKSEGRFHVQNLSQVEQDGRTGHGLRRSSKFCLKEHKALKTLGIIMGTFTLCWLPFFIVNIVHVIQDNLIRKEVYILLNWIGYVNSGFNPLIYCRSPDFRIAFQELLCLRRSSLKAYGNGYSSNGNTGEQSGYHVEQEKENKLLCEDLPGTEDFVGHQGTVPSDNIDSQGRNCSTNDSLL
Vif TR-FRET: HIV-1 Vif–A3G interaction blockers – biochemical, TR-FRET, GST-Vif 1-94, biotin-A3G peptide, dose response retest, primary screen (AID 1117319); TR-FRET GST-Vif / biotin-A3G peptide binding; higher % means a stronger effect; test concentration not given here; strong numbers were not always called active; inhibition, %; hits with a dose series show IC50 in µM; 260,000 tested, 0.57% active;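 active = above the screen mean plus three standard deviations and confirmed in dose response; inconclusive = results disagree or hit not tested in dose response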;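 also: Vif residues 1-94 fused to GST binding biotinylated APOBEC3G peptide 110-148; 0% = full assay without inhibitor and 100% = GST in place of GST-Vif; retest series ran down from 100 µM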
UCH37 DUB inh: inhibitors of human deubiquitinating enzyme UCH37; purified proteasome/UCH37, Ub-AMC cleavage fluorescence; inhibition, % (concentration not given with the values); 330,000 tested, 0.33% active;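 active = mean of two replicates above 20%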;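 also: 0% = compound-free wells with enzyme and 100% = wells lacking proteasome; stock transfer was 100 nL into about 20 µL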
Target sequence (Q9Y5K5 whole entry, looked up): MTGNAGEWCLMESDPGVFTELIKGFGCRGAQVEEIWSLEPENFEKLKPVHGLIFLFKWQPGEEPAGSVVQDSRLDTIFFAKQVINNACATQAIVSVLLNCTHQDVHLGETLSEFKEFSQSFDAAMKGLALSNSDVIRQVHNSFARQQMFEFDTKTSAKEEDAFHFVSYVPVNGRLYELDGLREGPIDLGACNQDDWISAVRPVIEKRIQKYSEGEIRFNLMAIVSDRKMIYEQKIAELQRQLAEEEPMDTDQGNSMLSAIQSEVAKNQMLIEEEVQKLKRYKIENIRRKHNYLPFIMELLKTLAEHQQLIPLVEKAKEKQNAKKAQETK
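Signal – fluorescence, ex 355 nm, em 460 nm · System – Proteasome-bound UCH37 · Input – 0.15 nM proteasome as dispensed · Timing – 30 min preincubation with enzyme, 25 min cleavage at room temperature · Read-out basis – percent inhibition of cleavage signal versus uninhibited and no-proteasome wells · Medium – Tris-HCl pH 7.4 with ATP-MgCl2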
Numbers without * were called inactive; ? = inconclusive; . = not tested or not shown.

SMILES	LANA-H2A inh	Ecoli growth	Bfl-1 A1 inh	HNF4A DNA FP	B2AR ag	Vif TR-FRET	UCH37 DUB inh
O=C(NCC(=O)N1CCCCCCC1)c1ccccc1Cl	-3.8	0.69	0.0	1.5	-1	-16%	1.1
O=C(c1ccc([N+](=O)[O-])s1)N1CCN(c2cccc(Cl)c2)CC1	2.2	0.69	0.1	-3.3	12	.	6.0
O=C1Nc2ccccc2C12OCC1(CO2)COC2(OC1)C(=O)Nc1ccccc12 (stereo unspecified)	-0.9	0.71	0.0	-1.8	6	?	-0.1
CC(C)C(=O)NCCCc1ccccc1	1.6	0.74	-0.8	1.4	6	5%	-0.4
Cc1cccc(-n2cc(CNCCc3nc(C)cc(C)n3)c(-c3cccc(F)c3)n2)c1	9.0	0.67	-0.1	-5.6	23	4%	0.2
CNC(=O)CCn1nc(-c2ccc(Cl)cc2)c2ccccc2c1=O	-5.6	0.75	0.0	5.3	-7	-1%	3.7
CC1CCCCN1C(=O)Cn1c(=O)n(-c2ccc(F)cc2)c(=O)c2sccc21 (stereo unspecified)	0.2	0.68	-1.0	-0.5	0	-5%	0.8
COc1ccc(N2CCN(C(=O)CSc3nc4cc(OC)c(OC)cc4cc3C#N)CC2)cc1	-1.2	0.73	-1.1	-2.7	-4	.	-8.4
c1ccc2c(c1)Nc1nccnc1S2	3.7	0.64	-1.7	8.9	1	17%	2.0
NC(=O)c1ccccc1NC(=O)c1cc(S(=O)(=O)N2CCCCC2)ccc1N1CCOCC1	0.2	0.7	-0.2	-3.0	-3	.	-16
CC(c1cccnc1)N(CCN(C)C)C(=O)Nc1ccc(Cl)cc1 (stereo unspecified)	-4.2	0.7	-0.6	-1.7	-4	-2%	3.5
C=CCOc1ccc(C2C(C(=O)c3ccco3)=C(O)C(=O)N2CCCN(CC)CC)cc1 (stereo unspecified)	-1.2	0.68	1.5	2.3	-8	4%	6.7
O=C(c1cc2ccccc2oc1=O)N(Cc1ccccc1)Cc1ccc2c(c1)OCO2	0.3	0.71	0.7	-4.6	1	12%	1.7
Cc1cccc(-n2nnnc2SCC(=O)Nc2cccc(S(N)(=O)=O)c2)c1	-0.4	0.64	0.7	-0.4	8	.	-0.6
COc1cc2nc(N(CCN(C)C)C(=O)c3ccc(S(=O)(=O)N(C)CC4CCCO4)cc3)sc2cc1OC (stereo unspecified)	-5.5	0.69	0.4	-2.8	-6	.	5.8
O=C(NC(=S)Nc1cc(S(=O)(=O)N2CCOCC2)ccc1N1CCOCC1)C1CCCC1	2.3	0.71	-0.5	.	.	-9%	-0.9
C#CCN(C(=O)Nc1ccccc1)c1ccccc1	3.9	0.67	3.3	0.4	1	-8%	2.4
CCOc1ccc(NC(=O)CN(C)CC(=O)Nc2ccccc2SC)cc1OCC	0.6	0.66	0.1	1.1	3	?	2.1
C/C=C/c1ccccc1OCc1ccc(C(=O)OC)o1	5.7	0.74	0.1	3.4	4	6%	4.7
CNC(=O)CSCc1c(Cl)cccc1Cl	0.1	0.62	-0.9	-0.6	7	1%	-2.4
CC(=O)Nc1ccc(S(=O)(=O)NCCS(=O)(=O)N2CCN(c3ccccc3F)CC2)cc1	5.9	0.71	0.1	1.1	-2	-6%	2.9
Cc1ccc(C)c(NC(=O)CSc2c(C)n[nH]c2C)c1	-1.5	0.72	0.5	-4.8	-2	30%	-0.3
O=C(CCc1ccccc1)NNC(=O)c1ccncc1	3.9	.	0.7	-3.0	-3	.	.
CN(C)c1ccc(/C=C(\C#N)C(=O)OCC(=O)N(C)C2CCS(=O)(=O)C2)cc1 (stereo unspecified)	11	0.65	-5.9	42*	19	.	19
COCc1nnc(NC(=O)CCc2ccccc2)s1	-3.3	0.74	-1.4	-4.3	2	0%	5.5
COc1cc(C2c3c(n[nH]c3C)C(=O)N2c2ccc(C)cc2)ccc1O (stereo unspecified)	6.3	0.72	-0.1	4.0	-5	12%	-0.7
CC(=O)c1ccc(NC(=O)C(C)OC(=O)COc2ccc(C#N)cc2)cc1 (stereo unspecified)	2.5	0.71	1.2	-0.8	8	.	0.5
O=C(COC(=O)c1ccc(S(=O)(=O)N2CCc3ccccc3C2)cc1)NC1CCS(=O)(=O)C1 (stereo unspecified)	4.9	0.65	0.0	0.4	4	16%	2.8
C=CCn1c(COC)nnc1SCC(=O)c1ccc(F)cc1	-5.7	0.64	2.0	-1.7	-13	1%	2.4
COc1cc(C2c3sc(=O)[nH]c3SC3C4CCC(C4)C23)ccc1O (stereo unspecified)	-1.1	0.69	-0.4	-1.0	16	8%	0.5
Cc1[nH]n(C(N)=S)c(=O)c1N=Nc1cccc(Cl)c1	-4.0	0.69	-7.5	1.2	-4	.	6.7
CCN(CC)S(=O)(=O)c1ccc(O)c(C(=O)OCC(=O)NC2CCCC2)c1	1.2	0.71	2.3	1.2	-1	0%	-11
COCCCNC(=O)CCN1C(=O)COc2ccccc21	4.4	0.69	0.3	0.5	-6	16%	-1.0
CCOC(=O)C1Nc2ccccc2C2C(O)C(O)CC12 (stereo unspecified)	-3.4	0.68	0.1	-74	-2	.	3.1
CCCCc1ccc(NC(=O)CC(C)(C)C)cc1	0.3	0.65	0.3	-1.8	5	71%	1.2
COc1ccc(CN2CCNC(=O)C2CC(=O)N2CCCN(C(C)=O)CC2)c(OC)c1 (stereo unspecified)	5.0	0.74	1.3	2.3	1	.	2.5

Single records, from the list above. Values in the order: LANA-H2A inh	Ecoli growth	Bfl-1 A1 inh	HNF4A DNA FP	B2AR ag	Vif TR-FRET	UCH37 DUB inh
CC(=O)c1ccc(NC(=O)C(C)OC(=O)COc2ccc(C#N)cc2)cc1 (stereo unspecified) is listed as 2.5	0.71	1.2	-0.8	8	.	0.5
O=C(COC(=O)c1ccc(S(=O)(=O)N2CCc3ccccc3C2)cc1)NC1CCS(=O)(=O)C1 (stereo unspecified) is listed as 4.9	0.65	0.0	0.4	4	16%	2.8
COCc1nnc(NC(=O)CCc2ccccc2)s1 is listed as -3.3	0.74	-1.4	-4.3	2	0%	5.5

New compounds follow.
SMILES	LANA-H2A inh	Ecoli growth	Bfl-1 A1 inh	HNF4A DNA FP	B2AR ag	Vif TR-FRET	UCH37 DUB inh
Cc1ccc2nsnc2c1NC(=O)c1ccc([N+](=O)[O-])cc1	-1.2	0.74	0.3	3.9	11	10%	6.1
CCCCn1nnnc1SCC(=O)N(CC)CC	-4.4	0.74	-0.4	1.4	-5	5%	1.3
O=C(CNC(=O)c1ccccc1)OCC(=O)c1ccc(Cl)s1	3.9	0.68	0.2	-0.8	-1	-4%	2.1
O=C(COc1ccc(Cl)cc1Cl)Nc1cccc(-c2ccc(N3CCOCC3)nn2)c1	.	0.7	.	3.2	6	-31%	4.5
O=C(Nc1ccc(S(=O)(=O)N2CCCC2)cc1)C1CCN(S(=O)(=O)c2ccc(F)cc2)CC1	-3.4	.	-1.0	-0.2	1	.	.
CCOc1cc(N2CCOCC2)c(OCC)cc1NC(=O)COc1ncnc2ccccc12	0.5	0.75	-1.6	-1.9	-4	9%	1.8
COc1ccc(C(=O)NC2CCN(CC(=O)NC3CCCCC3)CC2)cc1	4.8	0.66	0.1	-2.8	-2	-1%	7.1
COc1ccc(N2C(=O)c3ccccc3C(C)(C)C2=O)cc1	8.9	0.65	0.3	1.9	3	.	3.6
C[C@@H]1CC[C@]2(O[C@@H](CCO)C[C@@H](O)[C@@H]2O)O1	6.9	.	-0.1	7.9	-7	-8%	-0.7
COc1cc2[nH]c(=O)n(CCC(=O)NC3CCN(Cc4ccccc4)CC3)c(=O)c2cc1OC	.	0.68	.	-3.1	-3	13%	-4.2
N#Cc1ccccc1S(=O)(=O)N1CCN(CC(=O)Nc2ccccc2C(=O)NC2CC2)CC1	0.6	0.68	0.9	-3.5	7	-6%	0.6
CCCNS(=O)(=O)c1ccc(CCC(=O)N2CCOCC2)cc1	-1.9	0.68	-0.2	-5.4	-2	-1%	2.3
Cc1ccc(SCC(=O)c2cc(C)c(OC(=S)N(C)C)c(C)c2)cc1	-4.4	0.75	1.7	-1.3	3	3%	1.1
S=C(NCCCN1CCOCC1)Nc1ccc(Cl)cc1	-5.7	0.7	0.0	-2.7	-2	9%	1.9
CCOCCCNC(=S)N(Cc1ccco1)Cc1cc2cc3c(cc2[nH]c1=O)OCCO3	2.2	0.67	-0.2	-2.1	-6	18%	-60
COc1ccc(CN=C(C)c2c(C(F)(F)F)[nH]n(-c3nc4ccccc4s3)c2=O)cc1	1.8	0.72	-3.6	-2.4	-12	-3%	2.6
C#CCOCCOCCOCCNc1nc(N2CCN(C(=O)CCCCCCCCCCNC(=O)Cn3cc(C[C@@H](C)O)nn3)CC2)nc(N2CCN(C(=O)CCCCCCCCCCNC(=O)[C@@H]([C@H](C)O)n3cc(C)nn3)CC2)n1	2.8	.	0.1	-5.2	21	.	-0.9
N#Cc1ccc(C(=O)OCCc2cc3ccccc3c(=O)o2)cc1	1.7	0.71	0.7	-4.5	0	.	3.4
COc1ccc(C(=O)Nc2ccc(S(=O)(=O)Nc3cc(C)nc(C)n3)cc2)cc1	-12	0.71	0.1	-2.3	5	-2%	4.2
CCOC(=O)c1ccc(CNC(=O)CSc2nnnn2-c2ccc(Cl)cc2)o1	-4.9	0.67	0.5	-1.6	6	-2%	5.9
COc1ccc(C2C(C(=O)NCCCN3CCOCC3)c3ccccc3C(=O)N2c2ccc(OC)cc2)cc1 (stereo unspecified)	2.6	0.68	1.3	6.8	10	.	1.7
CCOC(=O)c1ccccc1NC(=O)c1ccc(F)cc1	-7.2	0.7	0.7	4.8	13	?	2.5
O=C(CCN1C(=O)C2CCCCC2C1=O)N1CCN(S(=O)(=O)c2c(F)cccc2F)CC1 (stereo unspecified)	0.7	0.7	1.2	-1.1	7	7%	2.3
CCCCCCn1c(N2CCC(C(N)=O)CC2)nc2c1c(=O)n(C)c(=O)n2C	-0.7	0.78	2.6	0.4	-3	5%	-0.1
Cc1cc(C)nc(N/N=C/c2sccc2C)n1	0.5	.	-2.7	-1.3	6	28%	.
COc1ccc(CCNC(=O)CCCn2c(SCC(N)=O)nc3cc4c(cc3c2=O)OCO4)cc1OC	7.9	0.69	-0.4	.	.	2%	1.4
COCCn1c(SCC(=O)Nc2cc(C(C)(C)C)nn2-c2ccccc2)nc2ccccc2c1=O	2.3	0.74	1.8	3.5	-9	3%	0.7
CCOC(=O)N1CCN(C(=O)COc2ccc(Br)cc2Cl)CC1	16	0.72	0.4	-1.6	-3	19%	5.4
COc1ccc(/C=N/NC(=O)CN(CCc2ccccc2)S(=O)(=O)c2ccc(NC(C)=O)cc2)cc1OC	-0.2	.	-1.0	1.2	4	7%	.
O=C(NNC(=O)c1cncc(Br)c1)c1ccncc1	.	0.68	0.7	-2.0	-15	9%	7.5
CC(C)(Cc1ccc(O)cc1)NC(=O)CC(=O)N=Nc1c(O)[nH]c2ccc(Br)cc12	-7.4	0.63	-0.5	-1.9	-7	2%	1.9
Cc1cc(C(=O)NCC2COc3ccccc3O2)c2ccccc2n1 (stereo unspecified)	-2.0	0.71	0.6	2.9	-11	-6%	-0.6
COc1cc(C(=O)N2CCNCC2)cc(OC)c1OC	7.9	0.61	1.1	16	-6	.	0.9
CC(C)(C)N(Cc1cc2ccccc2[nH]c1=O)C(=O)c1ccco1	9.3	0.67	0.8	-1.6	-6	-13%	-0.4
O=C(COC(=O)c1cnccn1)c1ccc(Cl)cc1	-3.9	0.71	0.4	0.8	-3	0%	2.1
COCCCNC(=O)c1ccc(CS(=O)(=O)c2ccccc2C)o1	0.9	0.67	0.7	1.3	-1	-4%	3.2

Compounds as they come, and some 2.1% of all compounds hit somewhere here.
